# ALR H2O2 inh = inhibitors of human sulfhydryl oxidase ALR; AID 485317; 290,000 tested, 3.8% active; purified ALR, DTT oxidation, H2O2 HRP-luminol luminescence; inhibition, % (no concentration beside the values);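 active means mean and each replicate at 75% or more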;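 further: stock transfer was 7.5 nL into about 7.5 µL; 0% = neutral wells and 100% = wells with inactivated enzyme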
# Target sequence (P55789 whole entry, looked up): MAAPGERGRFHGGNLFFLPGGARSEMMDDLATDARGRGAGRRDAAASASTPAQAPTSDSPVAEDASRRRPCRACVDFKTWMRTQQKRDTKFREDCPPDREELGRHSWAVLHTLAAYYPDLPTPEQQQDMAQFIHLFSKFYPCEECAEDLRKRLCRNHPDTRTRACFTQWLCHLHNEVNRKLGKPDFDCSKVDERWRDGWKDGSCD
# FGF22 binding = shifts melting point of recombinant human FGF22. 340,000 tested, 1.5% active. recombinant FGF22 thermal shift, SYPRO orange fluorescence; percent of sucrose octasulfate shift, DMSO zero. Q9HCT0. calls only at 9.99 µM;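 active means melting point raised past a set limit in the mean and every replicate; three in four hits are not shown here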
# Target sequence (Q9HCT0 whole entry, looked up): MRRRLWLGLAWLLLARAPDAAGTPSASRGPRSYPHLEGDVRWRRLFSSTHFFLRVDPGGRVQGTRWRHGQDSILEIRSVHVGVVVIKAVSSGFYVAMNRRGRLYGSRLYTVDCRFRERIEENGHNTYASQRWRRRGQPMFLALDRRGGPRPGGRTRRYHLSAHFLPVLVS
# HNF4A DNA FP = change in binding of human HNF4 alpha to DNA | P41235 | HNF4a-FITC DNA binding, fluorescence polarization, 1 h | activity change, % at 10 µM | 360,000 tested, 0.3% active; in the data active means activity change above about 30%, passing the limit was not always enough;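 further: controls were the assay level and a saturating level of protein; the project sought stronger binding though the title names inhibitors; some compounds called inactive have numbers as strong as hits; positive values seem to mean higher polarization but the record does not say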
# UCH37 DUB inh = inhibitors of human deubiquitinating enzyme UCH37; Q9Y5K5; purified proteasome/UCH37, Ub-AMC cleavage fluorescence; inhibition, % (concentration not given with the values); 330,000 tested, 0.33% active; AID 588478;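 active means mean of two replicates above 20%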;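 further: 0% = compound-free wells with enzyme and 100% = wells lacking proteasome; stock transfer was 100 nL into about 20 µL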
#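 assay system = human UCH37 enzyme supplied as purified proteasome complex | amount = proteasome at 0.15 nM in the dispensed enzyme solution | schedule = 30 min compound-proteasome preincubation then 25 min substrate reaction, room temperature | measured by = fluorescence, ex 355 nm, em 460 nm | benchmarks = no-proteasome wells (full inhibition) and compound-free wells (no inhibition)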
# LANA-H2A inh = blocks KSHV LANA binding to histone H2A/H2B; Q9QR71; 320,000 tested, 0.6% active; AID 2629; inhibition, % (no concentration beside the values); cell-free LANA-H2A/H2B peptide, fluorescence polarization; in the data active means inhibition mostly above about 10%, no sharp cut-off; inactive means mostly below about 6.7%;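 further: stock transfer was 7.5 nL into about 10 µL; 0% = median of vehicle wells and 100% = median of positive control wells; one replicate is shown; the record names a cut of 25% in any replicate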
# B2AR ag = agonists of human beta-2 adrenergic receptor inducing internalization; P07550; Am2.2-beta2AR cells, FAP receptor internalization, flow cytometry; reference of the scale not given here; response, % (concentration not given with the values); 340,000 tested, 0.43% active;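 active means response above a set limit, near 3 SD of response in nonfluorescent compounds, cut at about 42% in these data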;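 further: stock transfer was 100 nL into about 11 µL; a reference agonist was the positive control; negative values mostly stem from fluorescent compounds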
# Target sequence (P07550 whole entry, looked up): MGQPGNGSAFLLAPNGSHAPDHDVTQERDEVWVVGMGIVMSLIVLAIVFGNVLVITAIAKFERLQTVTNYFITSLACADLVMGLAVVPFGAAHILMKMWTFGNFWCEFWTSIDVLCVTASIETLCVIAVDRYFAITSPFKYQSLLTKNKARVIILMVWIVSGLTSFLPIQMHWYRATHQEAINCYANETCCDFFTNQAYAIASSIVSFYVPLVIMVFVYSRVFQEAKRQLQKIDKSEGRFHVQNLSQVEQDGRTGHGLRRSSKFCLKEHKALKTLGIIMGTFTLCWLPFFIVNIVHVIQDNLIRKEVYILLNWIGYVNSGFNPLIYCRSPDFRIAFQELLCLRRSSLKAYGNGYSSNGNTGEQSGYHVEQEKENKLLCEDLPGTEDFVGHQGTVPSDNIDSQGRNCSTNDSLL
# E coli growth = inhibitors of Escherichia coli growth; AID 1053175; 330,000 tested, 0.21% active; OD600, 23 h; hits give low values; OD600 absorbance (no concentration beside the values);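 active means OD600 absorbance below the run mean of sample wells minus 3.6 SD, in any replicate, cut at about 0.56 in these data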;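 further: stock transfer was 300 nL into about 60 µL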
# Numbers without * were called inactive; i = inactive; . = no result given.
entry	smiles	ALR H2O2 inh	FGF22 binding	HNF4A DNA FP	UCH37 DUB inh
1	CC1(C)CC(=O)CC(=Nc2ccc(C(=O)O)cc2)C1	-19.9	.	-1.6	-1.3
2	O=S(=O)(c1cc(F)ccc1F)N1CCN2CCCC2C1 (centres undefined)	5.1	i	-1.1	2.7
3	C=CC[C@H](CC(=O)N(CCO)Cc1ccccc1)C(=O)NCCOC(=O)[C@@H](CC=C)Cc1ccc(F)cc1	-1.9	i	-0.3	1.2
4	COCC(=O)Nc1cc(C)c2c(=O)oc3ccccc3c2n1	6.5	i	1.5	6.9
5	Cc1ccc(S(=O)(=O)Cc2ccc(C(=O)N3CCN(c4ccccn4)CC3)o2)cc1	97.5*	i	-3.9	.
6	Cc1ccnc(NC(=O)CCC(=O)N(CC(=O)NCCc2ccccc2)Cc2cccs2)c1	-0.6	i	-5.5	0.9
7	Nc1ccc(Cl)cc1C(=O)OCC(=O)NC1CCS(=O)(=O)C1 (centres undefined)	.	i	3.4	-401.0
8	Cc1c(C(=O)N(Cc2ccccc2)Cc2cccnc2)cnn1-c1ccc(F)cc1	4.4	i	1.9	-0.5

entry	LANA-H2A inh	B2AR ag	E coli growth
1	-5.7	2.0	0.765
2	0.4	2.9	0.668
3	-2.6	-5.3	.
4	0.2	-4.6	0.71
5	-3.0	-15.8	.
6	-0.7	-8.2	0.667
7	-1.1	-3.7	0.625
8	4.2	-10.8	0.664

# One compound at a time (already shown). Values in the order: ALR H2O2 inh, FGF22 binding, HNF4A DNA FP, UCH37 DUB inh, LANA-H2A inh, B2AR ag, E coli growth
# Results for Cc1c(C(=O)N(Cc2ccccc2)Cc2cccnc2)cnn1-c1ccc(F)cc1 → 4.4, i, 1.9, -0.5, 4.2, -10.8, 0.664
# Results for COCC(=O)Nc1cc(C)c2c(=O)oc3ccccc3c2n1 → 6.5, i, 1.5, 6.9, 0.2, -4.6, 0.71
# Results for C=CC[C@H](CC(=O)N(CCO)Cc1ccccc1)C(=O)NCCOC(=O)[C@@H](CC=C)Cc1ccc(F)cc1 → -1.9, i, -0.3, 1.2, -2.6, -5.3, .
# Results for Nc1ccc(Cl)cc1C(=O)OCC(=O)NC1CCS(=O)(=O)C1 (centres undefined) → ., i, 3.4, -401.0, -1.1, -3.7, 0.625

# A few values from the results shown:
# entry 7 in LANA-H2A inh reads -1.1
# entry 5 in HNF4A DNA FP reads -3.9
# entry 6 in LANA-H2A inh reads -0.7

# Of the compounds above, 2 contain four or more nitrogen atoms:
entry	smiles	ALR H2O2 inh	FGF22 binding	HNF4A DNA FP	UCH37 DUB inh
6	Cc1ccnc(NC(=O)CCC(=O)N(CC(=O)NCCc2ccccc2)Cc2cccs2)c1	-0.6	i	-5.5	0.9
8	Cc1c(C(=O)N(Cc2ccccc2)Cc2cccnc2)cnn1-c1ccc(F)cc1	4.4	i	1.9	-0.5

entry	LANA-H2A inh	B2AR ag	E coli growth
6	-0.7	-8.2	0.667
8	4.2	-10.8	0.664

# The list goes on.
entry	smiles	ALR H2O2 inh	FGF22 binding	HNF4A DNA FP	UCH37 DUB inh
9	COc1ccc(/C=C2\CCn3c2nc2cc(C(=O)O)ccc2c3=O)cc1O	.	.	-3.3	11.6
10	CC(C)c1ccccc1OCC(=O)NCC(c1cccs1)N1CCOCC1 (centres undefined)	.	.	-3.1	1.6
11	Nc1cc(=O)[nH]c(SCCSc2ccc(F)cc2)n1	-5.0	i	1.4	-0.2
12	Cc1ccc(CNC(=O)C2CC2c2ccccc2)cc1 (centres undefined)	-2.8	.	4.9	-0.8
13	C=CC[C@H](CC(=O)OC(C)(C)C)C(=O)OC[C@H]1CCCN1C(=O)[C@H](CC=C)CC(=O)N(CCO)Cc1ccccc1	-5.3	i	7.3	0.4
14	Cc1cc(C(=O)COC(=O)c2ccco2)c(C)n1Cc1ccco1	2.0	i	-1.4	0.6
15	C#CCOc1ccc(/C=C2/C(=O)N(c3cccc(C(=O)O)c3)N=C2C)cc1OC	-20.4	.	-4.6	.
16	CCCCOc1ccc(C(=O)N/C(=C\c2cccc([N+](=O)[O-])c2)C(=O)OC(C)C)cc1	.	.	-1.5	8.9

entry	LANA-H2A inh	B2AR ag	E coli growth
9	.	-2.8	0.632
10	.	8.7	0.75
11	2.9	-8.3	0.688
12	-0.1	0.4	0.744
13	0.7	-0.7	.
14	1.1	9.2	0.641
15	-3.6	0.5	.
16	0.5	0.1	0.801

# The listing continues:
entry	smiles	ALR H2O2 inh	FGF22 binding	HNF4A DNA FP	UCH37 DUB inh
17	CN(/C=C1/C(=O)CNC1=O)CCO	-4.1	.	0.0	0.5
18	Nc1cnc(Br)cc1Br	-16.7	.	-0.7	5.1
19	O=C(O)c1ccccc1C(=O)NNc1cccc(Cl)n1	-2.6	i	1.3	0.0
20	Cc1ccc(CNS(=O)(=O)c2c(N)n(C)c(=O)n(C)c2=O)cc1	-3.6	i	3.1	-1.8
21	CC(C)(C)c1ccc(NC(=O)COC(=O)c2ccc(CN3CCCC3=O)cc2)cc1	-1.8	i	-3.4	-1.3
22	COc1ccc(OC)c(N(CC(=O)N2CCOCC2)S(C)(=O)=O)c1	-0.1	i	-5.2	2.4
23	CC(C)(C)CNC(=O)c1cccc2c1C(=O)c1ccc(N3CCCC3)cc1S2(=O)=O	1.4	i	88.0	4.7
24	CCOC(=O)N1CCN(S(=O)(=O)c2ccc(C(=O)NNc3nc4cc(C)cc(C)c4s3)cc2)CC1	1.9	.	-1.8	.

entry	LANA-H2A inh	B2AR ag	E coli growth
17	2.5	2.6	0.674
18	-0.2	1.8	0.632
19	0.3	4.9	0.659
20	-0.5	-4.8	0.666
21	-2.5	-0.2	0.642
22	1.3	11.0	0.608
23	3.6	-10.9	0.652
24	9.0	22.7	.

# New compounds follow
entry	smiles	ALR H2O2 inh	FGF22 binding	HNF4A DNA FP	UCH37 DUB inh
25	O=C(COC(=O)/C=C/c1ccccc1)NC1CCCCCC1	.	.	2.1	2.5
26	COc1cc(CO)c(Br)cc1OCC(N)=O	-0.4	i	-1.2	0.9
27	C=CCN1CC(C)/C(=N\O)CC1C (centres undefined)	-16.8	i	-0.6	.
28	COCCCN1C(=O)C(O)=C(C(=O)c2ccc(C)o2)C1c1cccc(Br)c1 (centres undefined)	6.4	.	-4.5	5.7
29	COCCCN1C(=O)/C(=C/c2ccc(CNS(=O)(=O)c3ccccc3)o2)C(C(=O)OC)=C1C	6.2	i	-4.6	6.4
30	CC(=O)c1ccccc1NC(=O)CCNC(=O)c1ccco1	-7.2	i	-1.3	3.4
31	COc1ccc(N(CC(=O)NCc2cccs2)S(=O)(=O)c2cccc(C)c2)cc1	.	i	-1.7	-2.2
32	Nc1ccc2nc(-c3ccccc3)sc2c1	1.7	.	-0.2	i
33	CCOCCCNC(=O)COc1ccc(OC)cc1	-1.9	.	-2.6	4.7
34	COc1cccc(-c2nc(CS(=O)(=O)CC(=O)NCCc3cc(OC)ccc3OC)c(C)o2)c1	98.7*	i	0.9	-1.4
35	COC(=O)C1=C(N)Oc2cc(C)n(C)c(=O)c2C1c1ccc(Cl)cc1 (centres undefined)	.	.	-0.9	1.9

entry	LANA-H2A inh	B2AR ag	E coli growth
25	.	.	0.632
26	0.2	-4.9	0.696
27	6.2	-6.9	.
28	3.0	2.2	0.671
29	3.1	-15.7	0.753
30	2.8	-2.8	0.655
31	.	5.2	0.681
32	-7.0	9.0	0.672
33	6.2	3.6	0.663
34	-2.3	-1.6	0.666
35	-3.3	6.4	0.699

# Structures listed so far that bear a hit mark in ALR H2O2 inh.
entry	smiles	ALR H2O2 inh	FGF22 binding	HNF4A DNA FP	UCH37 DUB inh
5	Cc1ccc(S(=O)(=O)Cc2ccc(C(=O)N3CCN(c4ccccn4)CC3)o2)cc1	97.5*	i	-3.9	.
34	COc1cccc(-c2nc(CS(=O)(=O)CC(=O)NCCc3cc(OC)ccc3OC)c(C)o2)c1	98.7*	i	0.9	-1.4

entry	LANA-H2A inh	B2AR ag	E coli growth
5	-3.0	-15.8	.
34	-2.3	-1.6	0.666

# Only part of the results is shown; the hit share may differ from the screen's.
